Vaccinia mCherry: inhibitors of vaccinia virus infection (mCherry reporter signal). AID 720579. 0.63% of 310,000 active. Potency, µM (highest dose often 36.5 µM), without a hit: top-dose activity change, negative = inhibition, hits mostly inhibitors. Vaccinia virus mCherry reporter infection, fluorescence; about a quarter of the inactives have no number; active = well fitted inhibition curve with a large enough effect; inconclusive = small, poorly fitted or top-dose-only effect; inactive = no such curve, though single readings can be large or run the other way; tested in A549 cells; also: nearly all actives have a fitted effect of over 35% in size; inactives centre near -10
VACV Venus inh: vaccinia inhibition (Venus reporter). Vaccinia virus Venus reporter expression, fluorescence. Potency, µM (titrated, usually from 36.5 µM), for inactives: at the highest dose activity change, negative = inhibition, most hits filed as inhibitors. 0.46% of 330,000 active; active means well fitted inhibition curve with a large enough effect; inconclusive means small, poorly fitted or top-dose-only effect; inactive means no such curve, though single readings can be large or run the other way; tested in A549 cells; also: nearly all actives have a fitted effect of over 30% in size; inactives centre near -10
Numbers without * were called inactive; i = inactive; ? = inconclusive; nt = not tested or not shown; [ ] = dose if it differs, or a comment. % is scaled to controls: 0 for no effect and ±100 for the full control effect; potency is read from the fitted curve at half-maximal effect.

structure	Vaccinia mCherry	VACV Venus inh
CCN(CC)C(=O)c1sc(NC(=O)Cc2ccccc2)c(C#N)c1C	nt	-9%
O=C(CN(Cc1ccco1)C(=O)c1nsc(Cl)c1Cl)NC1CCCCC1	?	?
Cc1c2cnn(CC(=O)NC(C)C)c(=O)c2c(C)n1Cc1cccc(Cl)c1	5%	-10%
COc1ccc(NC(=O)CCCn2c(=O)c3sccc3n(Cc3cccc(C)c3)c2=O)cc1	1%	1%
Cc1ccc(CCNC(=O)CCSCc2ccccc2F)cc1	-5%	-10%
CCCN(CCC)Cc1c(C(=O)N/N=C/CCc2ccccc2)nnn1-c1nonc1N	-20%	-7%
Cc1ccc(C(C)C)c(OCC(=O)Nc2ccccc2N2CCN(C)CC2)c1	nt	?
COc1ccc(NS(=O)(=O)c2ccc(C)c(C(=O)NNC(=O)c3csc(N4CCOCC4)n3)c2)cc1	-20%	2%
COc1ccc(-c2ccc3c(c2)S(=O)(=O)c2cccc(C(=O)NCc4cc(C)oc4C(F)(F)F)c2C3=O)cc1OC	-16%	?
CCOc1cccc(SCc2noc(C(=O)NC(C)C)c2C(=O)O)c1	-9%	-5%
Cc1nn(CC(=O)NCc2ccccc2)c(C)c1[N+](=O)[O-]	-22%[1.46 µM]	-8%
COc1ccc(C(=O)Nc2ccc3[nH]ccc3c2)cc1OC	i[7.34 µM]	4%[7.34 µM]
Cc1ccc(C(C(=O)NC(C)(C)C)N(Cc2cccnc2)C(=O)C(=O)NC2CCCCC2)o1 (stereo not drawn)	-5%	-19%
COc1cccc(OCc2cc(C3Nc4ccccc4C(=O)N3Cc3ccccc3)ccc2OC)c1 (stereo not drawn)	-6%	4%
CCN(C(=O)COC(=O)c1ccc(C)c(S(=O)(=O)N2CCCCC2)c1)C1CCS(=O)(=O)C1 (stereo not drawn)	-6%	1%
Cc1sc2nc(SCC(=O)N(CCO)CCO)nc(N)c2c1C	i	-5%
Cc1sc2nc(SCC(=O)N(C)Cc3ccccc3)n(-c3ccccc3)c(=O)c2c1C	nt	-3%
CCOc1ccc2nc(N3C(=O)/C(=C/c4ccc(Cl)cc4)NC3=S)sc2c1	i	2%
Cc1ccccc1Sc1c(C#N)c(-c2ccccc2)nn1C	-11%	-15%
Cc1c(C)c2ccc(OC(C)C(=O)N3C[C@H]4C[C@@H](C3)c3cccc(=O)n3C4)c(C)c2oc1=O (stereo partly drawn)	2%	-3%
CC(C)CCNC(=O)C1CCC(Cn2c(=O)c3sccc3n(CC(=O)NC(C)C)c2=O)CC1 (stereo not drawn)	-26%	-15%
O=C(O)c1ccc(OCCn2ccnc2)cc1	i	-7%
Cc1ccc(C)c(OCCSc2nc3ccccc3n2CC(=O)N2CCOCC2)c1	4%	-3%
Cc1ccc(C(=O)c2ccccc2C(=O)OCC(=O)Nc2cccc([N+](=O)[O-])c2)cc1	-18%	?
CC(=O)Nc1cccc(-c2ccnc3c2CC(C(=O)Nc2ccccc2)O3)c1 (stereo not drawn)	-7%	4%
CCn1nnc(-c2ccc(N)cc2)n1	-2%	-14%
Cc1cc(NC(=O)CSc2nc(=O)n3cc(Cl)ccc3n2)no1	-11%	6%
CCOC(=O)c1sc2nc(CN3CCCCC3)nc(Cl)c2c1C	-12%	-11%
Cc1ccc(S(=O)(=O)Nc2ccc3nc(-c4cccn4C)[nH]c3c2)cc1	-24%	-16%
COc1cc(OC)c(OC)cc1/C=C/c1nccc2ccccc12	-21%	-21%
O=C(N/C(=C\c1ccco1)C(=O)N1CCCC(CO)C1)c1ccccc1 (stereo not drawn)	10%	5%
COc1ccccc1CN1CC(C(=O)NCCCCc2ccccn2)CCC1=O (stereo not drawn)	?	-6%
O=C(COC(=O)c1cccc(NS(=O)(=O)c2ccc(F)c(F)c2)c1)NC(=O)NC1CCCC1	i	-25%
Cc1noc(NS(=O)(=O)c2ccc(NC(=O)COc3ccc(C#N)cc3)cc2)c1C	-10%	-6%
NC(=O)c1ccc(NC(=O)COC(=O)C2COc3ccccc3O2)cc1 (stereo not drawn)	-21%	-12%
Cc1ccc(C(=O)Nc2nnc(SCc3cc(=O)n4ccc(C)cc4n3)s2)cc1	i	-18%
CC1=CC(=C2C(=O)NC(=S)NC2=O)C=C(C(F)(F)F)N1Cc1ccccc1	-21%	-26%
Cc1ccc(C)c(N2CC(C(=O)OCC(=O)Nc3cc(C)on3)CC2=O)c1 (stereo not drawn)	i	-7%
COc1ccc(CCN2C(=NC(=O)CCC(=O)O)SC3CS(=O)(=O)CC32)cc1 (stereo not drawn)	-13%	-1%
CC(=O)Nc1ccc(N2C(=O)CSC2c2cccc(Br)c2)cc1 (stereo not drawn)	i	-15%

(listing goes on)
| mol | Vaccinia mCherry | VACV Venus inh |
| --- | --- | --- |
| CCCCNC(C(=O)Nc1ccc([N+](=O)[O-])cc1Br)c1ccccc1 (stereo not drawn) | -2% | -5% |
| CC(C)COc1ccc(Nc2ncnc3ccc(Br)cc23)cc1 | -7% | -4% |
| CC(Cc1cccs1)NCc1ccccc1 (stereo not drawn) | 0% | -2% |
| COc1cc(C2NC(=O)N(C)C3=C2C(=O)N(c2cccc(Cl)c2)C3)ccc1O (stereo not drawn) | 0% | -1% |
| O=C(Cc1ccc(Br)cc1)Nc1ccc(S(=O)(=O)Nc2ncccn2)cc1 | -4% | -17% |
| Cc1cc(Cl)ccc1NC(=S)NCCc1ccc(S(N)(=O)=O)cc1 | -2% | -17% |
| Cc1c(N)cccc1Cl | -11% | -10% |
| COc1ccc(S(=O)(=O)N2CCCCCC2)cc1C(=O)OC(C)C(N)=O (stereo not drawn) | i | -10% |
| CC(C)CC(COCc1ccc(F)cc1)N1CCN(C(=O)c2cccc(C(F)(F)F)c2)CCC1=O (stereo not drawn) | i | -25% |
| CC1C/C(=N/NC(=O)c2ccc(CSc3nc4ccccc4[nH]3)cc2)CC(C)(C)C1 (stereo not drawn) | i | 4% |
| COc1cc(COc2cc(N)c(Cl)cc2C(=O)CCC2CCN(CCNS(C)(=O)=O)CC2)cc(OC)c1 | -24% | ? |
| CCc1nc2sc(C)c(C)c2c(=O)n1CCO | -26%[1.46 µM] | -12% |
| CCN(CC)S(=O)(=O)c1cc(C(=O)OCC(=O)NC2CCCc3ccccc32)ccc1C (stereo not drawn) | -19% | -10% |
| Cc1ccc(-c2nc(CN(CC3CCC3)CC3CCCO3)c(C)o2)s1 (stereo not drawn) | i | -4% |
| COc1cccc(NC(=O)Nc2ccc3snnc3c2)c1 | -28% | ? |

3 successive records out of the list so far, for reference:
| mol | Vaccinia mCherry | VACV Venus inh |
| --- | --- | --- |
| CCN(CC)S(=O)(=O)c1cc(C(=O)OCC(=O)NC2CCCc3ccccc32)ccc1C (stereo not drawn) | -19% | -10% |
| Cc1ccc(-c2nc(CN(CC3CCC3)CC3CCCO3)c(C)o2)s1 (stereo not drawn) | i | -4% |
| COc1cccc(NC(=O)Nc2ccc3snnc3c2)c1 | -28% | ? |

The listing picks up, starting two compounds before the break.
| mol | Vaccinia mCherry | VACV Venus inh |
| --- | --- | --- |
| Cc1ccc(-c2nc(CN(CC3CCC3)CC3CCCO3)c(C)o2)s1 (stereo not drawn) | i | -4% |
| COc1cccc(NC(=O)Nc2ccc3snnc3c2)c1 | -28% | ? |
| O=[N+]([O-])c1ccc(N2CCCC2)cc1NC1CC1 | -20% | -12% |
| CSc1nnc(Cc2sc(-c3ccccc3)nc2-c2ccccc2)o1 | nt | ? |
| O=S1(=O)C=C(SCCN2CCCC2)c2ccccc21 | -18% | -8% |
| Cc1cc(C)c2c(n1)sc1c(=O)[nH]c(SCc3ccccc3)nc12 | -10% | -7% |
| CCCN1CCN(CCCNC(=O)C2CCN(c3nnc(-n4cccc4)s3)CC2)CC1 | nt | -13% |
| Cc1ccc(N2C(=O)N(CC(=O)N3c4ccccc4CC3C)C(=O)C2C)cc1 (stereo not drawn) | -21% | -17% |
| Cc1ccc2oc(-c3cccc(NC(=O)COc4ccc(Cl)cc4)c3C)nc2c1 | i | -12% |
| CC(c1ccccc1)n1cc2c(c1-c1ccccc1Br)c(=O)n(C)c(=O)n2C (stereo not drawn) | -15% | -15% |
| Cc1n[nH]c(C)c1S(=O)(=O)N(CC(=O)Nc1ccc2c(c1)OCCO2)c1ccc(C(C)C)cc1 | 12% | -8% |
| COc1ccc(S(=O)(=O)N2CCOCC2)cc1C(=O)Nc1nc2ccccc2s1 | -2% | -5% |
| Cc1ccc(C(=O)Nc2ccccc2C(=O)NC(CC(=O)O)C(=O)O)cc1 (stereo not drawn) | i | -11% |
| Cc1ccc(S(=O)(=O)NC(=O)NCC2CCN(S(=O)(=O)c3ccccc3)CC2)cc1 | -8% | -4% |
| COc1ccc(Br)cc1CNC(=O)CCCn1c(=O)c2cccn2c2ccccc21 | -9% | -11% |
| Cn1c(Oc2ccccc2NCc2cc(Br)ccc2O)cc(=O)n(C)c1=O | nt | ? |
| Cc1cc(C)nc(NS(=O)(=O)c2ccc(NC(=O)CCC(=O)O)cc2)n1 | -19% | -10% |
| CCOC(=O)c1cccc(NC(=O)C2CCN(S(=O)(=O)c3ccc4c(c3)oc(=O)n4C)CC2)c1 | 7% | 10% |
| CCOc1cc(N2CCOCC2)c(OCC)cc1NC(=O)c1ccc(-n2ccnc2)c([N+](=O)[O-])c1 | -24% | 1% |
| Cn1nnnc1SCC1=C(C(=O)O)N2C(=O)C(NC(=O)C3CC3c3ccccc3)C2SC1 (stereo not drawn) | i | -1% |
| FC(F)(F)c1ccc(C2[C@H]3CN(Cc4ccc(-c5ccccc5)cc4)[C@H](c4ccccc4)C34CC2(c2ccccc2)C4)cc1 (stereo partly drawn) | -8% | 11% |
| COc1cccc(C(=O)NC(=O)Nc2ccc(-c3cc(C(F)(F)F)nn3-c3ccccc3)cc2)c1 | -25% | ? |
| CCOC(=O)c1noc2ncnc(N3CCN(c4cccc(Cl)c4)CC3)c12 | -9% | 4% |
| Cc1ccc(CNC(=O)C2CCCN(c3nn4c(=O)cc(C)nc4s3)C2)cc1 (stereo not drawn) | -9% | -10% |
| Cc1nn(Cc2ccccc2)c(C)c1/C=N/NC(=O)CNc1cccc(C(F)(F)F)c1 | -26% | ? |
| COc1cc(/C=C2/C(=O)N(c3ccc(C(=O)O)cc3)N=C2C)cc(OC)c1O | -3% | -4% |
| O=C(CN(c1ccccc1)S(=O)(=O)c1ccc(F)cc1)N1CCCCCC1 | nt | -6% |
| Cc1nn(C)c2c1c(C(F)(F)F)cc(=O)n2Cc1cccc(Br)c1 | 1% | -2% |
| O=C(Nc1ccccc1)OC1CN=C(N[N+](=O)[O-])NC1 (stereo not drawn) | -5% | -6% |
| CC(C)(C)OC(=O)NCc1ccc(CNC(=O)c2[nH]cnc2C(=O)NC2CCN(C(=O)OC(C)(C)C)CC2)cc1 | ? | -23% |
| CCN(CC(=O)Nc1ccc(NC(C)=O)cc1)C(=O)Cc1ccc(S(=O)(=O)N2CCOCC2)s1 | i | -5% |
| O=C(NCCc1ccc(F)cc1)C(=O)NCC(c1ccco1)S(=O)(=O)c1ccccc1 (stereo not drawn) | -4% | -7% |

A draw from above in order of SMILES length, largest number first:
| mol | Vaccinia mCherry | VACV Venus inh |
| --- | --- | --- |
| CCOc1cc(N2CCOCC2)c(OCC)cc1NC(=O)c1ccc(-n2ccnc2)c([N+](=O)[O-])c1 | -24% | 1% |
| CCN(CC(=O)Nc1ccc(NC(C)=O)cc1)C(=O)Cc1ccc(S(=O)(=O)N2CCOCC2)s1 | i | -5% |
| O=C(NCCc1ccc(F)cc1)C(=O)NCC(c1ccco1)S(=O)(=O)c1ccccc1 (stereo not drawn) | -4% | -7% |

(list continues)
| mol | Vaccinia mCherry | VACV Venus inh |
| --- | --- | --- |
| CCOc1ccc(-c2nc(-c3ccccc3)c(-c3ccccc3)[nH]2)cc1OCC | -28% | -25% |
| Cc1cc(C)cc(OCC(=O)OCC(=O)N2CCc3ccccc32)c1 | -8% | -5% |
| O=C(NCC1CCCCC1)c1ccc2nc([C@@H]3O[C@H](CO)[C@H](O)[C@H](O)[C@H]3O)[nH]c2c1 | 18% | 3% |
| COc1ccc(NC(=O)CSc2nc(N)c(C(=O)Nc3ccc(N(C)C)cc3)s2)cc1 | nt | ? |
| C=CCSc1nc(N)c(C#N)c(-c2ccc(C)cc2)c1C#N | nt | -29% |
| CC(C)(C)C(=O)Nc1nnc(SCC(=O)Nc2ccc3c(c2)OCO3)s1 | -3% | -3% |
| O=C1C2C3C=CC(C3)C2C(=O)N1Cc1ccccc1 (stereo not drawn) | i | -16% |
| Cc1ccc2cc3c(ccc4ccccc43)c3c2c1CC3 | i | -5% |
| CC(C)CN1CCN=C1N(C)C | 3% | -4% |
| CCc1ccc(C(=O)c2cn(CC(=O)Nc3ccc4c(c3)OCO4)c3ccc(F)cc3c2=O)cc1 | -18% | -18% |
| Cc1cccc(NC(=O)N2CCC(N3CCN(Cc4ccccc4)C(=O)C3=O)CC2)c1C | 4% | 9% |
| CCOC(=O)c1[nH]c2ccc(C)cc2c1N=C(C)N(C)C | 6% | 8% |
| Cc1cc(NC(=O)c2cc(CC(C)C)on2)n(-c2ccccc2)n1 | i | 4% |
| Cc1cc(C)nc(SCc2ccc(C(=O)N/N=C/c3ccccc3C(=O)O)cc2)n1 | -2% | -1% |
| COc1ccc(CC(=O)Nc2cccc(-c3nnc(-c4ccc(C)cc4)o3)c2)cc1OC | -12% | -3% |
| Cc1nc(C(=O)NNC(=O)c2ccccc2Cl)c(C(F)(F)F)o1 | ? | 4% |
| O=C(CSCc1ccc(Br)cc1)Nc1ccc(S(=O)(=O)N2CCCCCC2)cc1 | -30% | -19% |

High-throughput results from PubChem BioAssay.
